Screens from PubChem.
E coli growth: blocks Escherichia coli growth. OD600, 23 h; hits give low values. OD600 absorbance (concentration not given with the values). 330,000 tested, 0.21% active. AID 1053175;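 active means OD600 absorbance below the run mean of sample wells minus 3.6 SD, in any replicate, cut at about 0.56 in these data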;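 further: stock transfer was 300 nL into about 60 µL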
ALR H2O2 inh: inhibitors of human sulfhydryl oxidase ALR; inhibition, % (concentration not given with the values); P55789; 290,000 tested, 3.8% active; purified ALR, DTT oxidation, H2O2 HRP-luminol luminescence; AID 485317;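 active means mean and each replicate at 75% or more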;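 further: stock transfer was 7.5 nL into about 7.5 µL; 0% = neutral wells and 100% = wells with inactivated enzyme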
Target sequence (P55789 whole entry, looked up): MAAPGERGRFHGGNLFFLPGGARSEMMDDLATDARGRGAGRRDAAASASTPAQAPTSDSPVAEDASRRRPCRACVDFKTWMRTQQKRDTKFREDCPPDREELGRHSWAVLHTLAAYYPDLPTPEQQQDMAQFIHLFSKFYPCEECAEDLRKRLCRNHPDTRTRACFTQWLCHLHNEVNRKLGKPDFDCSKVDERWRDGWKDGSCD
HNF4A DNA FP: change in binding of human HNF4 alpha to DNA. 360,000 tested, 0.3% active. HNF4a-FITC DNA binding, fluorescence polarization, 1 h. activity change, % at 10 µM. AID 1224865; in the data active means activity change above about 30%, passing the limit was not always enough;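 further: controls were the assay level and a saturating level of protein; the project sought stronger binding though the title names inhibitors; some compounds called inactive have numbers as strong as hits; positive values seem to mean higher polarization but the record does not say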
Target sequence (P41235 whole entry, looked up): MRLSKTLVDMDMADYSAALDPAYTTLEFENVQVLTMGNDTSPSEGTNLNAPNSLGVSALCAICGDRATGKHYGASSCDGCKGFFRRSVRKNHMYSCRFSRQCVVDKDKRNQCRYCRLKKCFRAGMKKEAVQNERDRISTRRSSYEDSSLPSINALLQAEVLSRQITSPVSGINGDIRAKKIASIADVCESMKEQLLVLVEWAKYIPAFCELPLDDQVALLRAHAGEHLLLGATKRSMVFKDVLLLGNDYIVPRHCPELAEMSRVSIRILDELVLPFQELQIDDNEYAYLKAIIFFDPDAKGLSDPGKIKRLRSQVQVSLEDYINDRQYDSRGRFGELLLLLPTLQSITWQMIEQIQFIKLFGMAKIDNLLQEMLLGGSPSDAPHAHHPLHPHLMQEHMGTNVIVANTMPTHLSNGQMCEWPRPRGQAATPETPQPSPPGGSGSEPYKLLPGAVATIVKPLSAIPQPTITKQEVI
FGF22 binding: FGF22 (human) thermal shift binding; Q9HCT0; recombinant FGF22 thermal shift, SYPRO orange fluorescence; percent of sucrose octasulfate shift, DMSO zero; calls only at 9.99 µM; 340,000 tested, 1.5% active; AID 651658;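 active means melting point raised past a set limit in the mean and every replicate; three in four hits are not shown here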
Beta2AR agonist: agonists of human beta-2 adrenergic receptor inducing internalization. Am2.2-beta2AR cells, FAP receptor internalization, flow cytometry; reference of the scale not given here. response, % (concentration not given with the values). P07550. AID 504454. 340,000 tested, 0.43% active;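 active means response above a set limit, near 3 SD of response in nonfluorescent compounds, cut at about 42% in these data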;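 further: stock transfer was 100 nL into about 11 µL; a reference agonist was the positive control; negative values mostly stem from fluorescent compounds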
Target sequence (P07550 whole entry, looked up): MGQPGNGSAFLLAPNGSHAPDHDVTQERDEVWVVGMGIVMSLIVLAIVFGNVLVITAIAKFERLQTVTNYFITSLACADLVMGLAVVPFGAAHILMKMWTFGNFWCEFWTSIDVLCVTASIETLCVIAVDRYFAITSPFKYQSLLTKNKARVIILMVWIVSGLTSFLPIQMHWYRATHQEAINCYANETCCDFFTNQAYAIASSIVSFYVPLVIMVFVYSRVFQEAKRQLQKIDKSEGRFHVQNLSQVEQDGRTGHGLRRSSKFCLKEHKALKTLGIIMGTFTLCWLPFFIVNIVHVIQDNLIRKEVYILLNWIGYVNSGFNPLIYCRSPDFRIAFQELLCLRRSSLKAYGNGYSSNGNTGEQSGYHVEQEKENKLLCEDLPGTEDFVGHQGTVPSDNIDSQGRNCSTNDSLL
LANA-H2A inh: blocks KSHV LANA binding to histone H2A/H2B | Q9QR71 | inhibition, % (test concentration not listed) | cell-free LANA-H2A/H2B peptide, fluorescence polarization | 320,000 tested, 0.6% active; in the data active means inhibition mostly above about 10%, no sharp cut-off; inactive means mostly below about 6.7%;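 further: stock transfer was 7.5 nL into about 10 µL; 0% = median of vehicle wells and 100% = median of positive control wells; one replicate is shown; the record names a cut of 25% in any replicate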
UCH37 DUB inh: blocks the human deubiquitinase UCH37; Q9Y5K5; purified proteasome/UCH37, Ub-AMC cleavage fluorescence; inhibition, % (test concentration not listed); 330,000 tested, 0.33% active; AID 588478;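 active means mean of two replicates above 20%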;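 further: 0% = compound-free wells with enzyme and 100% = wells lacking proteasome; stock transfer was 100 nL into about 20 µL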
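Signal – fluorescence, ex 355 nm, em 460 nm · System – Proteasome-bound UCH37 · Input – 0.15 nM proteasome as dispensed · Timing – 30 min preincubation with enzyme, 25 min cleavage at room temperature · Read-out basis – percent inhibition of cleavage signal versus uninhibited and no-proteasome wells · Medium – Tris-HCl pH 7.4 with ATP-MgCl2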
Active calls of the source: *. Some of the compounds tested; rates above refer to the full screens.

How did c1coc(-c2nn3c(-c4ccco4)nnc3s2)c1 do in these assays?
E coli growth: 0.66; ALR H2O2 inh: 6; HNF4A DNA FP: -3.3; Beta2AR agonist: 3; LANA-H2A inh: -7.7; UCH37 DUB inh: 3.4

How did CCn1cc(C(=O)N2CCN(C3CCCCC3)CC2)c2cc(OC)c(OC)cc2c1=O do in these assays?
E coli growth: 0.7; ALR H2O2 inh: -4; HNF4A DNA FP: 3.8; Beta2AR agonist: -12; LANA-H2A inh: -3.7; UCH37 DUB inh: 2.8

How did COc1ccc(-c2csc(NC3=NCCCCC3)n2)cc1 do in these assays?
E coli growth: 0.67; ALR H2O2 inh: 98*; HNF4A DNA FP: -0.4; FGF22 binding: inactive; Beta2AR agonist: -4; LANA-H2A inh: 3.5; UCH37 DUB inh: 6.7

How did Cc1ccc2cc(CN(CCN3CCOCC3)Cc3nnnn3Cc3ccco3)c(=O)[nH]c2c1C do in these assays?
E coli growth: 0.74; HNF4A DNA FP: 2.7; Beta2AR agonist: -2; UCH37 DUB inh: -1.1

Results for CCOC(=O)c1[nH]c2ccc(F)cc2c1NC(=O)CCN1CCSCC1 ?
E coli growth: 0.73; ALR H2O2 inh: -5; HNF4A DNA FP: 3.1; Beta2AR agonist: -2; LANA-H2A inh: -2.4; UCH37 DUB inh: -15

Results for CNC(=O)COC(=O)c1ccccc1C(=O)c1ccc(Cl)c([N+](=O)[O-])c1 ?
E coli growth: 0.65; HNF4A DNA FP: 2.0; FGF22 binding: inactive; Beta2AR agonist: 16; UCH37 DUB inh: 5.9

Results for O=C(CSc1nc(O)cc(=O)[nH]1)Nc1ccc2c(c1)CCC2 ?
E coli growth: 0.69; ALR H2O2 inh: 99*; HNF4A DNA FP: 1.5; Beta2AR agonist: 1; LANA-H2A inh: 1.2; UCH37 DUB inh: 12

Results for O=C(Nc1c(C(=O)N2CCN(c3ccccn3)CC2)oc2ccccc12)c1cccc([N+](=O)[O-])c1 ?
E coli growth: 0.67; ALR H2O2 inh: -3; HNF4A DNA FP: 1.4; FGF22 binding: inactive; Beta2AR agonist: -2; LANA-H2A inh: 6.5; UCH37 DUB inh: 2.9

How did CCC(=O)c1ccc(OCC(=O)Nc2cccc(S(=O)(=O)N3CCCCCC3)c2)cc1 do in these assays?
E coli growth: 0.67; HNF4A DNA FP: -2.5; FGF22 binding: inactive; Beta2AR agonist: 3; UCH37 DUB inh: 1.8

Results for COCCn1c(=NC(=O)c2cc(-c3cccs3)nc3ccccc23)sc2cc(S(N)(=O)=O)ccc21 ?
E coli growth: 0.69; ALR H2O2 inh: -14; HNF4A DNA FP: 7.3; Beta2AR agonist: 40; LANA-H2A inh: -0.9; UCH37 DUB inh: -290

Results for COc1ccccc1N1CCN(C(C)C(=O)N2CC(C)OC(C)C2)CC1 (centres undefined) ?
E coli growth: 0.7; ALR H2O2 inh: 13; HNF4A DNA FP: 0.5; FGF22 binding: inactive; Beta2AR agonist: 0; LANA-H2A inh: 1.0; UCH37 DUB inh: 2.8

Results for O=C(OCC(=O)N1CCCC1)c1cc(Cl)ccc1[N+](=O)[O-] ?
E coli growth: 0.62; ALR H2O2 inh: -9; HNF4A DNA FP: 1.2; FGF22 binding: inactive; Beta2AR agonist: -1; LANA-H2A inh: -1.0; UCH37 DUB inh: 2.5

Results for O=C(OCC(=O)N1CCCCCC1)c1ccc([N+](=O)[O-])cc1Cl ?
E coli growth: 0.67; ALR H2O2 inh: -48; HNF4A DNA FP: -2.2; FGF22 binding: inactive; Beta2AR agonist: -2; LANA-H2A inh: -6.9; UCH37 DUB inh: -1.4

What do the screens show for `Cc1cc(C#N)c(C)c(SCc2[nH]nc3c2C(c2ccccc2)C(C#N)=C(N)O3)n1` (centres undefined)?
E coli growth: 0.74; ALR H2O2 inh: 26; HNF4A DNA FP: -3.1; Beta2AR agonist: -4; LANA-H2A inh: -3.5; UCH37 DUB inh: 6.9

What do the screens show for `c1ccc2c(c1)OCCOCCOCCOCCOc1ccccc1OCCOCCOCCO2`?
E coli growth: 0.71; ALR H2O2 inh: -18; HNF4A DNA FP: 0.8; Beta2AR agonist: 6; LANA-H2A inh: 5.2; UCH37 DUB inh: 3.9

How did O=C(O)c1ccc(-c2noc(-c3ccccc3C(F)(F)F)n2)cc1 do in these assays?
E coli growth: 0.66; ALR H2O2 inh: 16; HNF4A DNA FP: -2.3; FGF22 binding: inactive; Beta2AR agonist: 14; LANA-H2A inh: 1.0; UCH37 DUB inh: 0.8

Results for COCC(=O)Nc1cc(C)cn(Cc2cccc(C(F)(F)F)c2)c1=O ?
E coli growth: 0.67; ALR H2O2 inh: -14; HNF4A DNA FP: -1.0; FGF22 binding: inactive; Beta2AR agonist: -1; LANA-H2A inh: -3.7; UCH37 DUB inh: 4.4

How did CC(=O)N1CCN(C(=S)NCc2ccccc2)CC1 do in these assays?
E coli growth: 0.7; ALR H2O2 inh: -5; HNF4A DNA FP: -3.0; Beta2AR agonist: -11; LANA-H2A inh: -2.9; UCH37 DUB inh: 1.7

What do the screens show for `C=CCSc1nnc(-c2cc3c(C(F)(F)F)nn(C)c3s2)n1C`?
E coli growth: 0.74; ALR H2O2 inh: -1; HNF4A DNA FP: -2.7; Beta2AR agonist: 25; LANA-H2A inh: 2.3; UCH37 DUB inh: -0.3

How did CCN(CC)S(=O)(=O)c1ccc(OCC(=O)NCc2ccccc2)cc1 do in these assays?
E coli growth: 0.69; ALR H2O2 inh: -10; HNF4A DNA FP: 0.9; Beta2AR agonist: -4; LANA-H2A inh: -0.8; UCH37 DUB inh: 2.8

The list goes on, overlapping the part above by two compounds.
What do the screens show for `C=CCSc1nnc(-c2cc3c(C(F)(F)F)nn(C)c3s2)n1C`?
E coli growth: 0.74; ALR H2O2 inh: -1; HNF4A DNA FP: -2.7; Beta2AR agonist: 25; LANA-H2A inh: 2.3; UCH37 DUB inh: -0.3

How did CCN(CC)S(=O)(=O)c1ccc(OCC(=O)NCc2ccccc2)cc1 do in these assays?
E coli growth: 0.69; ALR H2O2 inh: -10; HNF4A DNA FP: 0.9; Beta2AR agonist: -4; LANA-H2A inh: -0.8; UCH37 DUB inh: 2.8

How did CCCCCCc1cc2cc(S(=O)(=O)c3ccc(C)cc3)c(=O)oc2cc1O do in these assays?
E coli growth: 0.79; ALR H2O2 inh: -236; HNF4A DNA FP: 6.6; FGF22 binding: inactive; Beta2AR agonist: 1; LANA-H2A inh: 2.3; UCH37 DUB inh: -344

How did CC(=O)Nc1ccc(NC(=O)C(C)OC(=O)CCCOc2ccc(Cl)cc2C)cc1 (centres undefined) do in these assays?
E coli growth: 0.63; ALR H2O2 inh: -15; HNF4A DNA FP: 18; FGF22 binding: inactive; Beta2AR agonist: -2; LANA-H2A inh: -2.2; UCH37 DUB inh: 5.4

Results for COc1ccc(-c2noc(CCC(=O)Nc3cc(Cl)c(OC)cc3OC)n2)cc1 ?
E coli growth: 0.79; ALR H2O2 inh: -3; HNF4A DNA FP: 1.0; Beta2AR agonist: 9; LANA-H2A inh: -5.0; UCH37 DUB inh: 5.7

How did Cc1c[nH]c2cccc(OCC(O)CNC(C)(C)C)c12 (centres undefined) do in these assays?
E coli growth: 0.67; ALR H2O2 inh: 65; HNF4A DNA FP: 8.7; Beta2AR agonist: -18; LANA-H2A inh: -2.8; UCH37 DUB inh: 0.8

How did Cc1ccnc(N=Cc2nc(-c3ccccc3Br)oc2O)c1 do in these assays?
E coli growth: 0.67; ALR H2O2 inh: 5; HNF4A DNA FP: 3.0; FGF22 binding: inactive; Beta2AR agonist: 1; LANA-H2A inh: 5.6; UCH37 DUB inh: 0.8

What do the screens show for `Cc1ccc2nc(-c3ccccc3)nc(SC(C)C(=O)NCc3cccs3)c2c1` (centres undefined)?
E coli growth: 0.68; ALR H2O2 inh: 3; LANA-H2A inh: -5.3; UCH37 DUB inh: -4.6

Results for Cc1ccc(/C=C/C(=O)O)cc1S(=O)(=O)N1CCCCC1 ?
E coli growth: 0.69; ALR H2O2 inh: -2; HNF4A DNA FP: 2.4; FGF22 binding: inactive; Beta2AR agonist: -4; LANA-H2A inh: -6.2; UCH37 DUB inh: 5.3

What do the screens show for `Cc1cccc(C)c1N1C(=O)C(Cl)=C(N2CCCC2)C1=O`?
E coli growth: 0.67; ALR H2O2 inh: 4; HNF4A DNA FP: -2.0; FGF22 binding: inactive; Beta2AR agonist: -11; LANA-H2A inh: 0.7; UCH37 DUB inh: 3.4

How did O=C(c1ccc(CS(=O)c2cccc(Cl)c2)o1)N1CCN(c2ccccn2)CC1 (centres undefined) do in these assays?
E coli growth: 0.66; ALR H2O2 inh: 16; HNF4A DNA FP: 7.9; FGF22 binding: inactive; Beta2AR agonist: -8; LANA-H2A inh: -5.8; UCH37 DUB inh: 4.9

Results for COc1ccc2c(c1)sc(=N)n2CC(=O)Nc1cc(C)cc(C)c1 ?
E coli growth: 0.66; ALR H2O2 inh: -20; HNF4A DNA FP: -1.7; Beta2AR agonist: -4; LANA-H2A inh: 0.9; UCH37 DUB inh: -0.3

How did O=C(N/N=C/c1ccc(O)c(O)c1)C1CC1 do in these assays?
ALR H2O2 inh: 99*; HNF4A DNA FP: -3.4; FGF22 binding: inactive; Beta2AR agonist: 5; LANA-H2A inh: 2.5

What do the screens show for `O=C(CSc1ccc([N+](=O)[O-])cc1)c1ccccc1`?
HNF4A DNA FP: -3.9; FGF22 binding: inactive; Beta2AR agonist: -17

Results for S=c1[nH]nc(-c2ccccn2)n1/N=C/c1ccc(Cl)c(Cl)c1 ?
ALR H2O2 inh: 0; HNF4A DNA FP: -4.3; FGF22 binding: inactive; Beta2AR agonist: 3; LANA-H2A inh: 4.2

What do the screens show for `CC(C)Cn1c(N)c(C(=O)COC(=O)c2ccc(Cl)cc2)c(=O)n(C)c1=O`?
E coli growth: 0.71; HNF4A DNA FP: 4.0; FGF22 binding: inactive; Beta2AR agonist: -4; LANA-H2A inh: 2.0; UCH37 DUB inh: 2.5

What do the screens show for `COCCn1c(SCC(=O)Nc2cc(OC)ccc2OC)nc2c(c1=O)SC(C)C2` (centres undefined)?
E coli growth: 0.64; ALR H2O2 inh: -22; HNF4A DNA FP: 2.4; FGF22 binding: inactive; Beta2AR agonist: -6; LANA-H2A inh: 2.6; UCH37 DUB inh: 4.5

What do the screens show for `O=C(O)c1cnn(-c2ccccc2)c1-c1ccncc1`?
E coli growth: 0.7; ALR H2O2 inh: -1; HNF4A DNA FP: -11; FGF22 binding: inactive; Beta2AR agonist: -3; LANA-H2A inh: 0.9; UCH37 DUB inh: -0.5

Results for O=C(c1cc(-c2ccncc2)nc2ccccc12)N1CCOCC1 ?
E coli growth: 0.66; HNF4A DNA FP: 1.5; FGF22 binding: inactive; Beta2AR agonist: -7; UCH37 DUB inh: 2.1

Results for CCOc1c(Br)ccc2c1sc1nc[nH]c(=O)c12 ?
E coli growth: 0.67; ALR H2O2 inh: -1; HNF4A DNA FP: 9.1; Beta2AR agonist: 4; LANA-H2A inh: -3.1; UCH37 DUB inh: 1.8

What do the screens show for `Cn1c2ccccc2c2c(=O)oc3ccccc3c21`?
E coli growth: 0.71; HNF4A DNA FP: 2.9; FGF22 binding: inactive; Beta2AR agonist: -4; UCH37 DUB inh: -38

What do the screens show for `Cc1[nH]c(=O)[nH]c(=O)c1S(=O)(=O)Nc1ccc(F)c(Cl)c1`?
E coli growth: 0.69; ALR H2O2 inh: -3; HNF4A DNA FP: 2.4; FGF22 binding: inactive; Beta2AR agonist: -3; LANA-H2A inh: 2.3; UCH37 DUB inh: 3.4

Results for OC(CNCCc1ccc(C(F)(F)F)cc1)COc1cccc2ccccc12 (centres undefined) ?
E coli growth: 0.58; ALR H2O2 inh: -8; HNF4A DNA FP: 0.8; Beta2AR agonist: 27; LANA-H2A inh: -2.5; UCH37 DUB inh: 6.9

What do the screens show for `CCOC(=O)c1ccc(NC(=O)c2nc[nH]c2C(=O)NCCNC(=O)c2[nH]cnc2C(=O)Nc2ccc(C(=O)OCC)cc2)cc1`?
ALR H2O2 inh: -6; HNF4A DNA FP: 9.4; FGF22 binding: inactive; Beta2AR agonist: 11; LANA-H2A inh: 5.4
